NPYLR7 agonist: mosquito NPYLR7 agonism; HEK293T NPYLR7/Galpha15, GCaMP6s calcium fluorescence; activation, % at 10 µM; 270,000 tested, 0.15% active; AID 1259423; in the data active = activation above about 40%;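 note: 0% = vehicle and 100% = reference agonist at the receptor; some compounds past the cut are filed as inactive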
NPYLR7 agonist max-min: second read-out of NPYLR7 agonist, no call of its own (marks repeat the call); activation, %; measured here: Max-Min RFU normalised activation; some inactives read as strong as hits;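 span of the calcium signal over five minutes; 0% = vehicle and 100% = native peptide agonist; compound fluorescence can raise it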
* marks the source's active call; other numbers are inactive results; & = joins results of further samples. Some of the compounds tested. The share of hits here may be higher or lower than overall.

The first 3 entries, ahead of the listing:
SMILES	NPYLR7 agonist	NPYLR7 agonist max-min
Cc1ccsc1-c1nc(COc2ccc(N(C)S(C)(=O)=O)cc2)c(C)o1	11	9
CC(C)NC(=O)N(Cc1cccc(C(F)(F)F)c1)CC1CC(c2ccc(Cl)c(Cl)c2)=NO1 (stereo unspecified)	22	32
N#C/C(=C\c1cccc(F)c1)c1nc(N)nc(Nc2ccccc2)n1	0	2

This part in full, previewed entries included:
SMILES	NPYLR7 agonist	NPYLR7 agonist max-min
Cc1ccsc1-c1nc(COc2ccc(N(C)S(C)(=O)=O)cc2)c(C)o1	11	9
CC(C)NC(=O)N(Cc1cccc(C(F)(F)F)c1)CC1CC(c2ccc(Cl)c(Cl)c2)=NO1 (stereo unspecified)	22	32
N#C/C(=C\c1cccc(F)c1)c1nc(N)nc(Nc2ccccc2)n1	0	2
CCn1cc(C(CC(=O)NCCCOC)c2ccc(Cl)cc2)c2ccccc21 (stereo unspecified)	34	33
CCCC1(CC)NC(=S)N(CCC(C)C)N1 (stereo unspecified)	1	46
Cc1ccccc1CSc1nnc(CNC(=O)Nc2ccc([N+](=O)[O-])cc2)n1-c1cc(Cl)ccc1Cl	-1	10
COCCN(C(=O)Cc1cccc(F)c1)c1ccc(OC)c(OC)c1	9	4
O=C(Nc1ccccn1)C1CCN(c2ccc(-c3ccccc3)nn2)CC1	-4	1
Cc1ccc(C(=O)N(CCN2CCOCC2)Cc2nccn2Cc2cc(C)ccc2C)cc1	3	11
CCCc1c(C)nn(-c2ccc(C(=O)NCCNc3ccc([N+](=O)[O-])cn3)cc2)c1C	-1	-4
CCOC(=O)C1=C(C)NC2=C(C(=O)CCC2)C1c1coc2ccccc2c1=O (stereo unspecified)	-10	-5
O=[N+]([O-])c1c(NCc2ccccc2)cc(N2CCCCC2)c2nonc12	-1	14
Cc1c(C(=O)C(=O)N2CCN(c3ccc([N+](=O)[O-])cc3)CC2)c2ccccc2n1C	5	3
O=C(c1ncccc1O)N1CCCC(CCc2c(F)cccc2F)C1 (stereo unspecified)	-1	0
COc1ccc(OC)c2sc(N(CCCN(C)C)C(=O)c3cccc(Cl)c3)nc12	7	5
COc1ccc(C(=O)N(CCN2CCOCC2)CC(=O)N(Cc2ccc3c(c2)OCO3)Cc2ccc(C)o2)c(OC)c1	3	13
O=C(c1ccccc1F)N(Cc1ccc(C(F)(F)F)cc1)CC1CC(c2cccc(F)c2)=NO1 (stereo unspecified)	1	6
COc1ccc(S(=O)(=O)N2CCc3c(ncnc3N(C)C)C2)c(OC)c1	7	1
COc1c(C)cc(C(=O)C2CCCN(Cc3cccc4nccnc34)C2)cc1C (stereo unspecified)	-5	-8
CCCCc1c(C)c(C#N)c2nc3ccccc3n2c1-n1ccnc1	-6	-6
Cc1sc2nc(CN(Cc3ccco3)CC(O)COCc3ccccc3)[nH]c(=O)c2c1C (stereo unspecified)	14	17
O=C(CN(C(=O)c1ccc([N+](=O)[O-])cc1)C1CC1)N(CCc1c[nH]c2ccccc12)Cc1ccc(C(F)(F)F)cc1	-3	1
Cc1ccc(-c2cccc(C(C)N(C)C)c2)nn1 (stereo unspecified)	8	3
O=C(COc1ccc(CN2CCC3(CCOCC3)CC2)cc1)N1CCCC1	-2	-2
COc1cccc(C2=NN(C(=O)CN3CCc4ccccc4C3)C(c3ccccc3C)C2)c1 (stereo unspecified)	21	18
COc1ccc(NS(=O)(=O)c2cc(C(=O)O)c(Br)cc2F)cn1	16	13
COc1ccc(/C=N\NC(=O)CSc2nc3ccccc3s2)c(OC)c1OC	19	22
COc1ccc2cc(C3CN(Cc4nnc(C(C)C)o4)CCO3)ccc2c1 (stereo unspecified)	-6	-11
COCCNC(=O)c1cccc(OC2CCN(CC(C)CCC=C(C)C)CC2)c1 (stereo unspecified)	6	1
CN(C)c1nc(N(c2ccccc2)c2ccccc2)nc(-n2cccc2)n1	0	-2
Cc1csc(N(C)C(=O)C2CC(c3c(F)cccc3F)=NO2)n1 (stereo unspecified)	-2	21
CCN(CC)c1ncccc1CNc1ccc(C(=O)OC)cn1	20	8
CCOC(=O)N1CCc2c(nc(-c3ccc(F)cc3)n(CC(=O)Nc3ccc(OCC)cc3)c2=O)C1	1	1
CCn1c(CC2CCN(Cc3c[nH]c4c(C)cccc34)CC2)nn(C)c1=O	6	4
CCCCCCn1c(C)c(C)n2c3c(=O)[nH]c(=O)n(C)c3nc12	-2	-5
Cc1cccc(NC(=O)CCCN2C(=O)c3cccc4cccc(c34)C2=O)n1	4	3
CCc1nc(N2CCN(C(=O)COc3ccccc3)CC2)c2c(C)c(C)sc2n1	-8	-3
Cc1cc(CN2CCCC(C(=O)Nc3ccccc3Oc3cccnc3)C2)oc1C (stereo unspecified)	12	6
COCCNc1cc(C)nc2c(-c3ccc(C)cc3)c(C)nn12	3	7
CC(C)C1CN(C(=O)c2n[nH]c3c2CN(C)CC3)CCC(=O)N1CC1CC1 (stereo unspecified)	0	1
Cc1cc(C)n(CC(C)NCC(=O)Nc2ccc(Cl)cc2F)n1 (stereo unspecified)	1	-2
COc1c(C)cc(CN(C)C(=O)NCc2ccccn2)cc1C	2	0
CC(C)(C)NS(=O)(=O)c1ccc(C#N)cc1	3	0
CC(C)(C)c1ccc(-c2noc3nc(Cc4ccccc4)nc(N4CCCN(C(=O)c5ccco5)CC4)c23)cc1	20	13
C=CCn1c(SCc2ccccc2CS(=O)(=O)c2ccccc2)nnc1-c1cc(-c2ccccc2)nc2ccccc12	-7	-13
Cc1nn(Cc2ccc(F)cc2)c2n[nH]c(NC(=O)C(Cc3ccccc3)NC(=O)c3ccco3)c12 (stereo unspecified)	0	12
O=C(CCC1CCN(C(=O)c2ccc(Cn3cnnn3)cc2)CC1)NC1CC1	6	2
Cc1cc(=O)[nH]c(-n2nc(C3CC3)cc2NC(=O)c2ccc(F)c(F)c2)n1	3	3
O=C1C=CC(c2nc3c4cnn(-c5cccc(Cl)c5)c4ncn3n2)=C(O)C1	-7	-1
Nc1ccncc1[N+](=O)[O-]	1	8
COc1ccc(-c2csc(-n3[nH]c(C)c(N=Nc4ccc(C(=O)O)cc4)c3=O)n2)cc1	0	-3
O=C(NCc1ccncc1)c1csc(CSc2nnc(-c3ccccc3Cl)n2-c2cccc(Cl)c2)n1	16	23
O=c1[nH]c(N2CCCC(CN3CCOCC3)C2)ncc1F (stereo unspecified)	5	3
COc1ccc(C2c3cc(OC)c(OC)cc3CCN2C(=O)C2CCC2)cc1OC (stereo unspecified)	0	-4
O=C(NCc1nncn1C1CC1)c1ccc(F)c(C(F)(F)F)c1	-1	-8
COCc1c(Br)c(C)nc(OCC(=O)N/N=C\c2ccc(-c3ccc(Cl)c([N+](=O)[O-])c3)o2)c1C#N	15	13
O=C(NC1CC1)C(c1ccccc1)N1CCN(S(=O)(=O)c2ccccc2F)CC1 (stereo unspecified)	3	9
Clc1cccc(OCCN2CCC(n3ccnc3)CC2)c1	-1	0
N#Cc1ncn(Cc2nc3scc(-c4ccc(Br)cc4)c3c(=O)[nH]2)n1	-10	-10
Cc1cccc(-c2nc3c(C)cccn3c2NC2CCCCC2)c1	1	11

(cont.)
SMILES	NPYLR7 agonist	NPYLR7 agonist max-min
O=S(=O)(NC1CCc2[nH]c3ccccc3c2C1)c1ccc(Oc2ccc(S(=O)(=O)NC3CCc4[nH]c5ccccc5c4C3)cc2)cc1 (stereo unspecified)	-8	-12
CN(C(=O)Cn1ccc(=O)[nH]c1=O)C1CCCc2ccccc21 (stereo unspecified)	0	-1
CCn1c(C2CCCN(C(=O)c3sccc3NC(C)=O)C2)nn(C)c1=O (stereo unspecified)	-5	-6
N#Cc1cccc(NC(=O)NCc2nc(-c3ccncc3)cs2)c1	-3	16
COc1ccc(C(=O)CN2CCC(C(=O)NC(c3ccc(F)cc3)c3ccc4ccccc4n3)CC2)cc1 (stereo unspecified)	5	3
O=C(CCC1CCCC1)N1CCN(C(=O)c2ccco2)CC1	1	0
COc1ccc(CCOC(=O)C2CCCCN2C(=O)CCC(=O)N2CCc3ccccc32)cc1OC (stereo unspecified)	-15	-20
CC1CCN(C(=O)COC(=O)c2ccc(Cl)c(S(=O)(=O)N(C)c3ccc(Cl)cc3)c2)CC1	-6	-10
O=C(NC1CCN(c2ccccc2C(=O)NC2CCCc3ccccc32)CC1)c1ccc(F)cc1F (stereo unspecified)	21	26
N#Cc1cccc(NC(=O)N2CCC3(CC2)C(=O)N(CC(=O)NCc2ccc4c(c2)OCO4)CN3c2ccccc2)c1	-4	6
CN(C)CCn1nnc2c(=O)oc3ccccc3c21	-14	-20
Cc1nn(C)c(C)c1CC(=O)Nc1nc(-c2ccccc2)cs1	-1	-1
O=C(NCc1ccco1)c1ccc(-c2cc(-c3ccc(Cl)cc3)[nH]n2)cc1	3	3
Cc1nnc(CN(C)C(=O)NC(C2CCCC2)C2CCCC2)n1C	-1&3	-1&30
O=C(NCC1CC1)c1ccc(-n2cccn2)c(F)c1	8	2
COc1ccc(CN2CC34C=CC(O3)C(C(=O)N3CCCC5CCCCC53)C4C2=O)c(OC)c1 (stereo unspecified)	0	16
COCCn1ccc2nc3ccn(CCO)c(=O)c3cc2c1=O	3	7
COc1cc(N2CCN(Cc3cccc(OC)c3F)CC2)nc(OC)n1	3	-2
COc1ccccc1CNC(=O)CC1C(=O)NCCN1Cc1ccccc1C(F)(F)F (stereo unspecified)	2	2
COc1cccc(CN(CCC(C)C)CC(O)COC(C)(C)C)c1OC (stereo unspecified)	-1	1
CCC(=O)Nc1ccc(C)c(NC(=O)c2ccc3c(c2)CCO3)c1	1	0
Cc1noc(-c2cccc(C(F)(F)F)c2)c1C(=O)NC1CCc2ccccc21 (stereo unspecified)	5	4
CC(C)[C@H](NC(=O)c1ccco1)C(=O)O	6	4
O=C1NCCC[C@@H]1NC(=O)[C@H]1CN(C(=O)CS(=O)(=O)c2ccccc2)CCN1C(=O)NC1CCCCC1	-9	-18

At a glance, part of the list above:
SMILES	NPYLR7 agonist	NPYLR7 agonist max-min
Cc1noc(-c2cccc(C(F)(F)F)c2)c1C(=O)NC1CCc2ccccc21 (stereo unspecified)	5	4
CC(C)[C@H](NC(=O)c1ccco1)C(=O)O	6	4
O=C1NCCC[C@@H]1NC(=O)[C@H]1CN(C(=O)CS(=O)(=O)c2ccccc2)CCN1C(=O)NC1CCCCC1	-9	-18

Entries of single compounds from above. Values in the order: NPYLR7 agonist	NPYLR7 agonist max-min
Results for COc1ccc(-c2csc(-n3[nH]c(C)c(N=Nc4ccc(C(=O)O)cc4)c3=O)n2)cc1 → 0	-3
Results for Cc1nn(C)c(C)c1CC(=O)Nc1nc(-c2ccccc2)cs1 → -1	-1
Results for CCOC(=O)C1=C(C)NC2=C(C(=O)CCC2)C1c1coc2ccccc2c1=O (stereo unspecified) → -10	-5
Results for COc1ccc2cc(C3CN(Cc4nnc(C(C)C)o4)CCO3)ccc2c1 (stereo unspecified) → -6	-11
Results for CCCC1(CC)NC(=S)N(CCC(C)C)N1 (stereo unspecified) → 1	46

Remaining list, next part:
SMILES	NPYLR7 agonist	NPYLR7 agonist max-min
CC(C)C(=O)N1CCC1(C)C(=O)NCc1cc(Cl)ccc1F (stereo unspecified)	5	2
CC(=O)Nc1ccc(CC2CCN(C(=O)Nc3ccccc3C)CC2)cc1	3	12
CN(CC(=O)N1CCC(c2ccccc2)=N1)S(=O)(=O)c1ccc(Cl)cc1	12	10
O=C(c1ccco1)N1CCN(Cc2cn[nH]c2-c2cc3ccccc3o2)CC1	-2	-2
CNC(=O)c1cc(C)ccc1NCC(=O)Nc1ccc(Cl)cn1	15	12
CCOc1cc(C(=O)Nc2ccc(NS(C)(=O)=O)cc2)ccc1OC	0	-1
CCN(CC)C(=O)C(NC(=O)c1ccccc1F)C1CCN(C(=O)c2ccccc2OC)CC1 (stereo unspecified)	22	23
C=CCC1(O)C(=O)N2C(=C1C(=O)N1CCOCC1)c1ccccc1CC2(C)C (stereo unspecified)	-2	-2
CCOC(=O)c1cc(-c2ccc(F)cc2)n(C2CCN(C(=O)C(=O)OC)CC2)n1	5	3
Cc1nn(C)c(Cl)c1CNC(C)C(C)n1cccn1 (stereo unspecified)	7&-1	5&0
Clc1ccc2nc(CSc3ncnc4sccc34)[nH]c2c1	2	1
Cc1noc(CSCC(=O)Nc2cc3c(C)cc(=O)oc3cc2C)n1	-5	-12
Cc1ccn2c(=O)c(NC(=O)CCCc3ccccc3)c(C)nc2c1	5	3
Cc1nnc(-c2ccc(C(=O)NCCc3ccc(C(F)(F)F)cc3)cc2)o1	11	9
COc1ccc([C@@H](C)NC(=O)N2CCC(O)(c3ccc(C)cn3)CC2)cc1	17	12
Cc1cc(Cl)ccc1N1CCNC(C)C1=O (stereo unspecified)	-2	1
OCC(O)CSCc1sccc1Br (stereo unspecified)	4	6
Cc1ccccc1-c1ccc2c(c1)COCC(=O)N2CC1CC1	8	4
COc1cccc(Cc2nnc(NC(=O)COC3CCCC3)s2)c1	-2	-4
NC(=O)CN1CCN(c2nc(C=Cc3ccccc3)nc3sc4c(c23)CCCC4)CC1	3	-3
Cc1cccc(C2c3[nH]c4ccccc4c3CCN2C(=O)CN2CCCCC2=O)c1 (stereo unspecified)	6&11	5&7
c1nc(N2CCN(CCN3CCCC3)CC2)c2c3c(sc2n1)CCCCC3	0	17
NC(=O)c1c(N)sc2c1CCCCC2	1	0
Cc1ccc(CN(Cc2ccccc2)C(=O)CN(CC(C)C)C(=O)Nc2ccc(F)c(F)c2)o1	2	12
O=C(Cn1nc(C2CC2)c2cnn(-c3ccccc3)c2c1=O)Nc1ccc(F)cc1	11	6
COc1ccc(C(=O)N(CC(=O)N2CCc3sccc3C2c2ccc(Cl)cc2Cl)Cc2ccco2)c(OC)c1 (stereo unspecified)	3	-1
Cn1cccc1C(CNC(=O)C1CCCCC1)N1CCc2ccccc2C1 (stereo unspecified)	-3	-3
N#CCC(Cc1ccccc1)c1ccco1 (stereo unspecified)	22	11

Screening results as filed in PubChem.
